Screening results (PubChem BioAssay)
HIV TAR-Tat – HIV-1 TAR-Tat binding disruption. HIV-1 TAR RNA, Tat peptide displacement FRET; hits give high values. z-score (concentration not given with the values). 0.6% of 100,000 active. AID 1259389;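 also: score is relative to mean and SD of negative controls; some compounds called inactive have numbers as strong as hits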
CDC25B CDK2 inh – human CDC25B-CDK2/CyclinA binding inhibition; P30305+P24941; HTRF CDC25B-CDK2/CyclinA binding, anti-His/anti-Flag; hits give high values; z-score (test concentration not listed); 0.72% of 94,000 active; AID 1259370;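 also: score is relative to mean and SD of negative controls; strong numbers were not always called active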
* = called active by the depositor.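 The calls were made as follows: active = z-score from 3 up in half or more of its runs; inactive = the rest.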

CCCN1C(=O)c2n[nH]c(-c3ccco3)c2C1c1ccc(O)c(OCC)c1 (configuration not stated) was read as HIV TAR-Tat 0.53 and CDC25B CDK2 inh -0.27.
Screening S=C1CCCN1c1ccccc1 returned CDC25B CDK2 inh -2.5.
`Cc1cccc(OCc2nc(-c3ccc(-n4cccc4)cc3)no2)c1C` gave HIV TAR-Tat 0.5 and CDC25B CDK2 inh -1.1.
For CCN(CC)CCN1C(=O)c2nc3ccccc3n2CC1(C)C(=O)NC1CCC(C)CC1 (configuration not stated) the results were HIV TAR-Tat 0.27.
`Cc1ccc(C)c(N2C(=O)C3C4C=CC(CC4)C3C2=O)c1` (configuration not stated) gave HIV TAR-Tat 0.03 and CDC25B CDK2 inh -1.1.
For CSc1ccc(-c2noc(-c3ccc[nH]c3=O)n2)cc1 the results were HIV TAR-Tat 0.23 and CDC25B CDK2 inh -1.8.
`CCCCOc1ccc(S(=O)(=O)Nc2cccc(-c3ccc(S(C)(=O)=O)nn3)c2)cc1` gave HIV TAR-Tat 0.39.
For O=S(=O)(c1ccc2nc(NCCCN3CCN(c4ccccc4F)CC3)ccc2c1)N1CCCC1 the results were HIV TAR-Tat 1.7.
For CCCCNC(=O)c1nn(C)c2c1CSc1ccccc1-2 the results were HIV TAR-Tat -0.32 and CDC25B CDK2 inh -0.4.
Screening O=C(NC(=S)Nc1ccc2oc(-c3ccncc3)nc2c1)c1ccccc1I returned CDC25B CDK2 inh -15.
`COc1ccccc1-c1nc(SCc2cc(=O)n3nc(C4CC4)sc3n2)n[nH]1` gave HIV TAR-Tat -0.4.
Screening C=CCSc1nnc(NC(=O)c2nn(-c3cccc(Cl)c3)ccc2=O)s1 returned HIV TAR-Tat -0.65 and CDC25B CDK2 inh -2.3.
Screening CCc1c(O)nc2n(c1=O)CCS2 returned HIV TAR-Tat 0.29 and CDC25B CDK2 inh -0.11.
Cn1cnc2c(=O)oc3ccc(S(=O)(=O)Nc4ccc5c(c4)OCO5)cc3c21 was read as HIV TAR-Tat 2.
Screening CCc1cc2c(cc3c(=O)n(CC(=O)NCC4CCCO4)nc(CC)n32)s1 (configuration not stated) returned CDC25B CDK2 inh -1.9.

Part of the list above in order of number of heavy atoms, lowest first:
`Cc1ccc(C)c(N2C(=O)C3C4C=CC(CC4)C3C2=O)c1` (configuration not stated) gave HIV TAR-Tat 0.03 and CDC25B CDK2 inh -1.1.
Screening C=CCSc1nnc(NC(=O)c2nn(-c3cccc(Cl)c3)ccc2=O)s1 returned HIV TAR-Tat -0.65 and CDC25B CDK2 inh -2.3.
Cn1cnc2c(=O)oc3ccc(S(=O)(=O)Nc4ccc5c(c4)OCO5)cc3c21 was read as HIV TAR-Tat 2.
`CCCCOc1ccc(S(=O)(=O)Nc2cccc(-c3ccc(S(C)(=O)=O)nn3)c2)cc1` gave HIV TAR-Tat 0.39.

(more compounds)
Screening CN1C(=O)C(C)(C)c2cc(S(=O)(=O)Nc3ccccc3F)ccc21 returned HIV TAR-Tat -0.06.
CSc1cccc(NS(=O)(=O)c2ccc3[nH]c4c(c3c2)CCCC4)c1 was read as HIV TAR-Tat -0.21.
CSc1c(C#N)c(N)[nH]c(=S)c1C#N was read as CDC25B CDK2 inh -3.6.
For CC(=O)C1=C(O)C(=O)N(C2CCCCC2)C1c1ccccc1 (configuration not stated) the results were CDC25B CDK2 inh 1.8.
For O=c1c(Br)c(N2CCOCC2)cnn1-c1ccccc1 the results were HIV TAR-Tat 2.9 and CDC25B CDK2 inh -2.2.
`N#CC1=C(N)OC2=C(C(=O)CCC2)C1c1cccc(Cl)c1` (configuration not stated) gave CDC25B CDK2 inh 0.33.
For CCN(CC)C(=O)Nc1c(-c2c(Cl)cccc2Cl)noc1C the results were CDC25B CDK2 inh -0.8.
`COc1ccc(Cc2nnc3n2N=C(c2ccc(C)cc2)CS3)cc1OC` gave HIV TAR-Tat 2.4.
For Cc1nnc2sc(SCC(=O)Nc3ccc4c(c3)OCCO4)nn2c1=O the results were HIV TAR-Tat 0.45.
Brc1ccccc1-n1ncc2c1ncn1nc(Cc3ccccc3)nc21 was read as HIV TAR-Tat 1.3 and CDC25B CDK2 inh -0.08.
CCOC(=O)c1cn(CC(=O)Nc2ccc3c(c2)OCO3)c2nc(C)ccc2c1=O was read as HIV TAR-Tat 0.3.
Cc1cc2c(cc1S(=O)(=O)NCCN1CCC(C)CC1)OCC(=O)N2 was read as HIV TAR-Tat 0.63.
Screening O=C(C1CCN(c2ccc(Cl)cc2)C1=O)N1CCN(c2ccccc2)CC1 (configuration not stated) returned HIV TAR-Tat -1.2.
`NNC(=O)/C(=C\c1ccccc1Cl)NC(=O)c1ccccc1` gave CDC25B CDK2 inh -3.
`CCc1ccc(CN2CCc3nc(Nc4ccc5c(c4)OCCO5)ncc3C2)cc1` gave HIV TAR-Tat 0.06.
Screening Cc1cc2nc(COC(=O)CC(C)C)cc(=O)n2o1 returned HIV TAR-Tat -0.55.
`O=C(NCCOC12CC3CC(CC(C3)C1)C2)c1cc2c(s1)-c1ccccc1OC2` gave CDC25B CDK2 inh -2.3.
Screening COCCCN1CCn2c(nc3cc(NS(=O)(=O)c4ccccc4)ccc32)C1 returned HIV TAR-Tat 0.91 and CDC25B CDK2 inh 0.93.
O=C(NCC1CCCO1)C1CC(c2ccccc2F)=NO1 (configuration not stated) was read as HIV TAR-Tat -0.4 and CDC25B CDK2 inh -1.4.
Screening CSc1scc2c1C(=O)/C(=C/N(C)C)CC2 returned CDC25B CDK2 inh -1.6.
CCCNC(=O)c1csc2c1CCCCC2 was read as HIV TAR-Tat 0.08 and CDC25B CDK2 inh -2.
`COc1ccc(NC(=O)CSc2nnc(C)n3c2cc2occc23)cc1` gave HIV TAR-Tat 1.4.
Cc1ccc2oc(-c3ccccc3)c(O)c(=O)c2c1 was read as HIV TAR-Tat 0.28 and CDC25B CDK2 inh -0.57.
Screening CCN1CCN(c2cc(NC3CCCCC3)c3c4c(onc24)-c2ccccc2C3=O)CC1 returned HIV TAR-Tat 4.3* and CDC25B CDK2 inh -0.46.
Screening Cc1nc2c(cnn2-c2ccc(Cl)cc2)c(=O)n1-c1ccc(C(C)C)cc1 returned HIV TAR-Tat 1.9.
CCc1c(C)nc2n(c1=O)C(c1ccccn1)N=C(Nc1ccc(F)cc1)N2 (configuration not stated) was read as HIV TAR-Tat 1.3.
For CN1C(C(=O)N2CCN(c3ccc(F)cc3)CC2)=CC(c2cccs2)=NS1(=O)=O the results were HIV TAR-Tat 1.4 and CDC25B CDK2 inh -1.2.
CN(C)CCN(C(=O)c1ccco1)c1nc2ccc(Br)cc2s1 was read as HIV TAR-Tat 0.52.
`Cc1cn2c(=O)c(S(=O)(=O)NC3CCN(Cc4ccccc4)CC3)c(C)nc2s1` gave HIV TAR-Tat -1.7.
Cc1c(CNCC2CCCO2)c(C(=O)O)c(C)n1Cc1cccc(F)c1 (configuration not stated) was read as HIV TAR-Tat 1.
`C=CCn1c(SCC(C)C)nc2sc3c(c2c1=O)CC(C)(C)OC3` gave CDC25B CDK2 inh -0.34.
Screening CC(=O)N1c2ccc(S(=O)(=O)N3CCCC3C(=O)NCc3cccs3)cc2CC1C (configuration not stated) returned HIV TAR-Tat 0.87.
`Cc1ccc(N2C(=O)C3C4c5ccccc5C(CO)(c5ccccc54)C3C2=O)c(C)c1` (configuration not stated) gave HIV TAR-Tat 0.85 and CDC25B CDK2 inh -1.7.
`C=CCNC(=S)SCCN` gave CDC25B CDK2 inh 0.57.
`COC(=O)c1sccc1NC(=O)CCSCCc1ccccn1` gave HIV TAR-Tat 1.9.
CCSc1ncc(CO)n1Cc1ccc(Cl)cc1 was read as HIV TAR-Tat 1.8.
COc1cccc(-c2noc(N3CCN(c4ccccc4OC)CC3)n2)c1 was read as HIV TAR-Tat -0.73.
COc1cnc(CSc2ncccn2)cc1OCC(=O)NCc1ccc2c(c1)OCO2 was read as HIV TAR-Tat 0.85.
For Cc1nn(CCCC(=O)NCc2ccccn2)c(=O)c2cc3occc3n12 the results were HIV TAR-Tat 0.36 and CDC25B CDK2 inh -1.8.
For O=C1CN(Cc2ccc(F)cc2Cl)S(=O)(=O)c2ccccc2N1Cc1ccccc1 the results were HIV TAR-Tat 1.2.
For CC1=C(C(=O)OCCOC(C)C)C(c2ccc3c(c2)OCO3)C2=C(CC(c3cccs3)CC2=O)N1 (configuration not stated) the results were HIV TAR-Tat -1.1 and CDC25B CDK2 inh -1.6.
For O=S(=O)(c1ccc(-n2cnnn2)cc1)N1CC=C(c2ccc(F)cc2)CC1 the results were HIV TAR-Tat 0.42 and CDC25B CDK2 inh 0.2.
`COc1ccc(S(=O)(=O)Nc2ccc3c(c2)oc(=O)n3C)cc1Cl` gave HIV TAR-Tat -0.39.
Screening Cc1cc2c(cc1S(=O)(=O)NCc1ccc(Br)cc1)OCC(=O)N2 returned HIV TAR-Tat 1.5.
O=[N+]([O-])c1c(NC2CC2)ncnc1NC1CC1 was read as HIV TAR-Tat 0.58 and CDC25B CDK2 inh -1.2.

Gathered by group, the compounds so far containing bromine.
For O=c1c(Br)c(N2CCOCC2)cnn1-c1ccccc1 the results were HIV TAR-Tat 2.9 and CDC25B CDK2 inh -2.2.
Brc1ccccc1-n1ncc2c1ncn1nc(Cc3ccccc3)nc21 was read as HIV TAR-Tat 1.3 and CDC25B CDK2 inh -0.08.
CN(C)CCN(C(=O)c1ccco1)c1nc2ccc(Br)cc2s1 was read as HIV TAR-Tat 0.52.
Screening Cc1cc2c(cc1S(=O)(=O)NCc1ccc(Br)cc1)OCC(=O)N2 returned HIV TAR-Tat 1.5.

The main list resumes; the 5 compounds before the break are reprinted first.
For CC1=C(C(=O)OCCOC(C)C)C(c2ccc3c(c2)OCO3)C2=C(CC(c3cccs3)CC2=O)N1 (configuration not stated) the results were HIV TAR-Tat -1.1 and CDC25B CDK2 inh -1.6.
For O=S(=O)(c1ccc(-n2cnnn2)cc1)N1CC=C(c2ccc(F)cc2)CC1 the results were HIV TAR-Tat 0.42 and CDC25B CDK2 inh 0.2.
`COc1ccc(S(=O)(=O)Nc2ccc3c(c2)oc(=O)n3C)cc1Cl` gave HIV TAR-Tat -0.39.
Screening Cc1cc2c(cc1S(=O)(=O)NCc1ccc(Br)cc1)OCC(=O)N2 returned HIV TAR-Tat 1.5.
O=[N+]([O-])c1c(NC2CC2)ncnc1NC1CC1 was read as HIV TAR-Tat 0.58 and CDC25B CDK2 inh -1.2.
O=c1[nH]cnc2c(-c3ccc(Cl)cc3)csc12 was read as HIV TAR-Tat -1.6 and CDC25B CDK2 inh -1.6.
Screening CCNC(=O)NC1CCN(c2nc3ccccc3s2)CC1 returned HIV TAR-Tat 0.16 and CDC25B CDK2 inh -0.76.
`CC(=O)Nc1ccc(S(=O)(=O)NCc2cn3c(C)csc3n2)cc1` gave CDC25B CDK2 inh -1.
Screening CCCCSc1nc2c(c(=O)[nH]1)C(c1ccc(C)cc1)C(C(=O)OC)=C(C)N2 (configuration not stated) returned HIV TAR-Tat 1.4 and CDC25B CDK2 inh -2.3.
`O=C(c1ccc(OC(F)(F)F)cc1)c1ncc[nH]1` gave CDC25B CDK2 inh -0.45.
CC1CCN(c2nn3c(N)c(-c4ccccc4)nc3s2)CC1 was read as HIV TAR-Tat 0.11.
Screening Cc1ccc2c(c1)Cc1c(nc(-c3ccc(F)cc3)nc1SCC(N)=O)O2 returned HIV TAR-Tat 0.93 and CDC25B CDK2 inh -0.78.
Cc1ccc(-c2nonc2NC(=O)c2nn(-c3ccc(Cl)cc3)ccc2=O)cc1 was read as HIV TAR-Tat 0.38 and CDC25B CDK2 inh -0.83.
Cc1nc2ncnn2c(C)c1CCC(=O)N1CCN(c2ccccn2)CC1 was read as CDC25B CDK2 inh -0.31.
Screening Cc1cc(C)nc(NC(=O)CCCn2nnc3cc(S(=O)(=O)N4CCCC4)ccc32)n1 returned HIV TAR-Tat 0.75.
Screening O=C(c1ccco1)N1CCN(S(=O)(=O)c2cc3[nH]c(=O)[nH]c3cc2Cl)CC1 returned HIV TAR-Tat -0.09.
For COc1ccc(N2CCN(C(c3cccs3)C(C)NS(C)(=O)=O)CC2)cc1 (configuration not stated) the results were CDC25B CDK2 inh -2.3.
Screening O=C(O)c1ccccc1SCCCN1C(=O)c2cccc3cccc(c23)C1=O returned CDC25B CDK2 inh -1.5.
`COc1ccc(-c2cc3nc(C)cc(NCC4CCCO4)n3n2)cc1OC` (configuration not stated) gave HIV TAR-Tat 3.5 and CDC25B CDK2 inh 1.4.
Screening COc1cccc(CNCCO)c1OCc1ccccc1F returned HIV TAR-Tat 1.5 and CDC25B CDK2 inh 0.48.
Screening COCCCNC(=O)NCc1c(C)nn(C)c1C returned HIV TAR-Tat 0.27.
Screening Cc1sc(NC(=O)c2ccc(Br)cc2)nc1-c1ccc(Cl)cc1Cl returned CDC25B CDK2 inh -4.1.
CCOc1ccc(Oc2ncnc3sc(C)cc23)cc1 was read as HIV TAR-Tat -0.71.
For Cc1noc2ncnc(N3CCC(C(=O)NCCCN4CCCC4=O)CC3)c12 the results were HIV TAR-Tat 2.1.
Screening Cc1ccc(C(C)C)cc1C(=O)CC1(O)C(=O)N(C)c2ccccc21 (configuration not stated) returned CDC25B CDK2 inh -1.6.
CCOC(=O)c1cn[nH]c1S(=O)(=O)N1CCN(C2CCCCC2)CC1 was read as HIV TAR-Tat 0.35.
For COc1cc(C=C2C(=O)c3ccccc3C2=O)ccc1OC(=O)c1ccco1 the results were CDC25B CDK2 inh 1.4.
For O=C(O)c1ccc2c(=O)n(-c3ccccc3)c(=O)[nH]c2c1 the results were HIV TAR-Tat 1.6 and CDC25B CDK2 inh -2.4.
O=C(Cn1ncc2c1-c1ccccc1OC2)N1CCOCC1 was read as HIV TAR-Tat -1.3 and CDC25B CDK2 inh -2.1.
Screening CCCC(=O)Oc1ccc(C2C(C#N)=C(N)OC3=C2C(=O)CCC3)cc1 (configuration not stated) returned CDC25B CDK2 inh 0.03.
For CCc1nn(CC(=O)NCCCOC)c(=O)c2cc3occc3n12 the results were HIV TAR-Tat 1.5 and CDC25B CDK2 inh -0.25.
For Cc1nc(N2CCN(C)CC2)cc(N2CCN(S(=O)(=O)c3cccc(F)c3)CC2)n1 the results were HIV TAR-Tat 1.2 and CDC25B CDK2 inh -0.74.
`NS(=O)(=O)c1cc(C2(O)NC(=O)c3ccccc32)ccc1Cl` (configuration not stated) gave HIV TAR-Tat 0.37.

Random draw from the library, and some 0.94% of all compounds hit somewhere here.
